HNF4A DNA FP: change in binding of human HNF4A to DNA, primary screen, biochemical, fluorescence polarization, FITC-DNA | Hepatocyte nuclear factor 4-alpha (Homo sapiens), P41235 | 1 h | activity change, % at 10 µM | AID 1224865, 2016 | 360,000 tested, 0.3% active; in the data active = activity change above about 30%, passing the limit was not always enough;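 note: controls were the assay level and a saturating level of protein; the project sought stronger binding though the title names inhibitors; some compounds called inactive have numbers as strong as hits; positive values seem to mean higher polarization but the record does not say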
Target sequence (P41235 whole entry, looked up): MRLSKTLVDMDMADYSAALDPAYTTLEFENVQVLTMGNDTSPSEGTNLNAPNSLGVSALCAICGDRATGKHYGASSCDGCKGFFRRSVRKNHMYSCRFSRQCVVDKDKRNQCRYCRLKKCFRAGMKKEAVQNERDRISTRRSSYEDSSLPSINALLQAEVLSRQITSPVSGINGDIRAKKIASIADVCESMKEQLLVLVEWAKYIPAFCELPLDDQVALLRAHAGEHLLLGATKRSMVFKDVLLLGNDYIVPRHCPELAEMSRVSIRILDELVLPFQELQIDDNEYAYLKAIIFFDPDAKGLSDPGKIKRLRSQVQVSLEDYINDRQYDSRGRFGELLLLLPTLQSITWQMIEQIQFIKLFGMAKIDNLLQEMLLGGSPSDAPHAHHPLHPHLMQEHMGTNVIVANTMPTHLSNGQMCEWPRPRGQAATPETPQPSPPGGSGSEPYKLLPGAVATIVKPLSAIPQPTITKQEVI
RanGTP-Impb inh: inhibitors of RanGTP-importin-beta interaction, primary screen, biochemical, FRET, CFP-Ran, YFP-importin-beta, homogeneous. Ran GTPase (GTP-bound) - importin-beta complex. cell-free CFP-Ran/YFP-importin-beta FRET ratio. inhibition, % (no concentration beside the values). 300,000 tested, 1.1% active. AID 2216, 2009;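 active = most replicates above 15%; inconclusive = exactly half above 15%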;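 note: 0% = DMSO wells and 100% = Ran loaded with GDP instead of GTP; wells of about 40 µL received 100 nL stock; the first replicate is given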
Beta2AR agonist: beta2AR agonists driving receptor internalization, primary screen, cell-based, FAP fluorogen, flow cytometry; Beta-2 adrenergic receptor (Homo sapiens), P07550; Am2.2-beta2AR cells; reference of the scale not given here; response, % (no concentration beside the values); 340,000 tested, 0.43% active;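 active = response above a set limit, near 3 SD of response in nonfluorescent compounds, cut at about 42% in these data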;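 note: stock transfer was 100 nL into about 11 µL; a reference agonist was the positive control; negative values mostly stem from fluorescent compounds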
Target sequence (P07550 whole entry, looked up): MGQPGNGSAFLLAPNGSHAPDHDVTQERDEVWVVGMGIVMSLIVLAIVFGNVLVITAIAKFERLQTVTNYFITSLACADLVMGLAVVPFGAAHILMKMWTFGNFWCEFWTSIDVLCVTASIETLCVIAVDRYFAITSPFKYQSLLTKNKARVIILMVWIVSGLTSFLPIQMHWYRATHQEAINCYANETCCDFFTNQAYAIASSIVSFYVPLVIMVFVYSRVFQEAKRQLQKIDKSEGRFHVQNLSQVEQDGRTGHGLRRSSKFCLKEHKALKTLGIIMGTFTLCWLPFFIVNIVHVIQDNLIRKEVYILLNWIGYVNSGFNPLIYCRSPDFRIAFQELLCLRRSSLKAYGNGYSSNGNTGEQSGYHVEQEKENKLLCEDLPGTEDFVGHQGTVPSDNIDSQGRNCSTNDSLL
Calb FLC: C. albicans growth inhibition with fluconazole, primary screen, CaCi-2 strain, Alamar Blue fluorescence | 300,000 tested, 0.57% active | growth inhibition, % (test concentration not listed) | AID 1979, 2009 | C. albicans CaCi-2 (fluconazole-resistant clinical isolate) + fluconazole, 48 h;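 active = most replicates above 75%; inconclusive = exactly half above 75%; inactive = most below 75%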;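 note: all wells also contain fluconazole at 8 µg/ml as a sub-toxic cotreatment; 0% = median of DMSO wells and 100% = median of geldanamycin control wells; wells of about 8 µL received 7.5 nL stock; the first replicate is given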
ALR H2O2 inh: inhibitors of human ALR sulfhydryl oxidase, primary screen, biochemical, H2O2 detection, HRP-luminol luminescence, single point. FAD-linked sulfhydryl oxidase ALR (Homo sapiens), P55789. inhibition, % (concentration not given with the values). 290,000 tested, 3.8% active. purified ALR, DTT oxidation;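 active = mean and each replicate at 75% or more; inconclusive = only one of the two met; inactive = neither met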;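 note: stock transfer was 7.5 nL into about 7.5 µL; 0% = neutral wells and 100% = wells with inactivated enzyme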
Target sequence (P55789 whole entry, looked up): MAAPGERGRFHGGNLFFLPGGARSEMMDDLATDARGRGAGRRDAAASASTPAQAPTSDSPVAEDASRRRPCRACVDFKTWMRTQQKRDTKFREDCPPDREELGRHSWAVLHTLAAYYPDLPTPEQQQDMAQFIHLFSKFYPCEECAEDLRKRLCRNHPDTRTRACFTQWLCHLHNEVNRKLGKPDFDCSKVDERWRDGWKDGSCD
Vif A3G: inhibitors of Vif binding to APOBEC3G peptide, primary screen, biochemical, TR-FRET, GST-Vif 1-94, biotin-A3G peptide, dose response retest (AID 1117319). TR-FRET GST-Vif / biotin-A3G peptide binding; higher % means a stronger effect; test concentration not given here; strong numbers were not always called active. inhibition, %, or IC50 in µM where a hit was titrated. 260,000 tested, 0.57% active;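 active = above the screen mean plus three standard deviations and confirmed in dose response; inconclusive = results disagree or hit not tested in dose response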;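 note: Vif residues 1-94 fused to GST binding biotinylated APOBEC3G peptide 110-148; 0% = full assay without inhibitor and 100% = GST in place of GST-Vif; retest series ran down from 100 µM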
LANA-H2B inh: blockers of LANA interaction with H2A/H2B – biochemical, FP readout, HTS, primary screen | inhibition, % (test concentration not listed) | Protein LANA1 (Human herpesvirus 8 type P (isolate GK18)), Q9QR71 | 320,000 tested, 0.6% active | cell-free LANA-H2A/H2B peptide, fluorescence polarization | AID 2629, 2010; in the data active = inhibition mostly above about 10%, no sharp cut-off; inactive = mostly below about 6.7%;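 note: stock transfer was 7.5 nL into about 10 µL; 0% = median of vehicle wells and 100% = median of positive control wells; one replicate is shown; the record names a cut of 25% in any replicate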
Numbers without * were called inactive; ? = inconclusive; / = no result given.

SMILES	HNF4A DNA FP	RanGTP-Impb inh	Beta2AR agonist	Calb FLC	ALR H2O2 inh	Vif A3G	LANA-H2B inh
COc1ccc(OC)c(C2Nc3ccccc3NC3=C2C(=O)CC(C)(C)C3)c1 (centres undefined)	-0.1	-5.5	-1	-5	99*	/	3.4
CC(C)CC(C(=O)Nc1oc(-c2ccco2)c(-c2ccco2)c1C#N)N1C(=O)c2ccccc2C1=O (centres undefined)	3.3	1.0	4	3	32	?	0.2
O=C(Oc1cccc([N+](=O)[O-])c1)C1CCN(C(=O)c2ccc(F)cc2)CC1	1.9	-0.4	5	2	10	/	-1.4
COc1ccc(NC(=O)/C(C#N)=C\c2ccc(N3CCOCC3)o2)cc1	217	18*	-6	103*	80*	/	-47
Cc1cc(C(=O)OCC(=O)NC2CCCC2)c2ccccc2n1	6.9	/	-1	/	/	1%	/
COc1cccc(C(=O)N2CCN(C(=O)C3CCCO3)CC2)c1 (centres undefined)	2.9	/	2	/	/	-8%	/
O=C(NCCc1ccccn1)c1ccc(OC2CCN(Cc3ccccn3)CC2)cc1	-4.5	0.1	-15	-2	-16	15%	1.5
COc1ccc(Cc2nnc(SCC(=O)N3CCCC3)o2)cc1	0.7	-1.2	0	-5	-8	/	2.5
Cc1csc(=NC(=O)c2ccccc2)n1Cc1ccco1	0.0	-1.4	-7	9	33	-5%	0.6
CC1CCC(NC(=O)CN2C(=O)C3CCCN3c3ncc(Cl)cc32)CC1 (centres undefined)	/	8.6	/	10	/	1%	/
Cc1ccc(S(=O)(=O)N2CCOCC2)cc1C(=O)Nc1cccc(C(=O)NC2CC2)c1	-1.9	/	-10	/	1	-4%	-3.9
CCOC(=O)C(NS(=O)(=O)c1ccccc1)(C(F)(F)F)P(=O)(OC(C)C)OC(C)C (centres undefined)	2.6	3.8	-1	0	2	0%	-0.3
Cc1c(Cl)cccc1NC(=O)CN1CCC(C(O)(c2ccccc2)c2ccccc2)CC1	0.9	5.6	-3	-9	-3	-3%	-0.1
CCOc1ccc(-c2c(C(=O)N/N=C/c3ccco3)nnn2-c2nonc2N)cc1	-0.5	0.1	-12	-11	-4	1%	-2.9
COc1cccc(N(Cc2nnc3n2CCCCC3)C(=O)Nc2ccccc2F)c1	2.7	-0.1	0	-3	-6	-10%	-2.6
Cc1cccc(C(=O)Nc2ccc(C(=O)N3CCCCC3C)cc2)c1 (centres undefined)	5.9	1.7	6	4	3	/	-6.2
CCc1cccc(CC)c1NC(=O)COC(=O)c1ccc(F)c(S(=O)(=O)N(CC)CC)c1	6.4	3.3	21	-10	-11	/	-0.7
CCC(Nc1ccc(OC)cc1)C(=O)N/N=C/c1ccc([N+](=O)[O-])cc1 (centres undefined)	0.4	5.6	0	-1	68	1%	1.2
Cn1nnnc1SCCNCc1ccccc1OCc1ccc(F)cc1	-2.8	1.3	-1	-11	-2	/	-2.0
Brc1ccc2c(c1)OCCOCCOc1cc(Br)ccc1OCCOCCOCCO2	-0.4	-17	10	3	-9	-5%	-1.7
O=C(N1CCN(c2ccccn2)CC1)C(Cl)(Cl)Cl	-2.2	-0.6	-11	3	1	5%	1.1
Cc1cc([N+](=O)[O-])ccc1N1C(=O)c2ccc(C(=O)Nc3ccccc3C(=O)O)cc2C1=O	-0.5	-4.7	-1	-2	98*	/	2.4
COc1cc(-n2nnnc2SC)c(OC)cc1Cl	-0.5	-1.6	0	37	-1	1%	4.5
COc1ccc(CCNC(=O)c2cc3sc(Cl)cc3n2C)cc1OC	3.3	4.3	-9	19	29	4%	-2.0
CCOc1ccc(-n2cnnn2)cc1S(=O)(=O)NCCc1ccc(OC)c(OC)c1	1.7	-1.2	1	3	-4	1%	-5.3

Rewritten with two lines to a compound: part of the list above
Each structure is followed by: HNF4A DNA FP | RanGTP-Impb inh | Beta2AR agonist | Calb FLC | ALR H2O2 inh | Vif A3G | LANA-H2B inh
- COc1ccc(NC(=O)/C(C#N)=C\c2ccc(N3CCOCC3)o2)cc1
 : 217 | 18* | -6 | 103* | 80* | / | -47
- Cc1cc(C(=O)OCC(=O)NC2CCCC2)c2ccccc2n1
 : 6.9 | / | -1 | / | / | 1% | /
- COc1cccc(C(=O)N2CCN(C(=O)C3CCCO3)CC2)c1 (centres undefined)
 : 2.9 | / | 2 | / | / | -8% | /
- O=C(NCCc1ccccn1)c1ccc(OC2CCN(Cc3ccccn3)CC2)cc1
 : -4.5 | 0.1 | -15 | -2 | -16 | 15% | 1.5
- COc1ccc(Cc2nnc(SCC(=O)N3CCCC3)o2)cc1
 : 0.7 | -1.2 | 0 | -5 | -8 | / | 2.5
- Cc1csc(=NC(=O)c2ccccc2)n1Cc1ccco1
 : 0.0 | -1.4 | -7 | 9 | 33 | -5% | 0.6

Carrying on.
SMILES	HNF4A DNA FP	RanGTP-Impb inh	Beta2AR agonist	Calb FLC	ALR H2O2 inh	Vif A3G	LANA-H2B inh
CCOC(=O)c1sc(=NC(=O)c2ccc(OC)c(OC)c2)n(C)c1C	0.6	2.9	0	12	-4	-36%	-5.2
CCOC(=O)C(C)N1C(=O)S/C(=C/c2cc(C)n(-c3ccccn3)c2C)C1=O (centres undefined)	-2.8	-0.7	4	14	6	2%	2.8
O=C1C2ON(c3ccccc3)C(c3ccncc3)C2C(=O)N1c1ccc(Br)cc1 (centres undefined)	4.1	4.4	10	7	-3	-2%	-2.7
COc1cc(C2C(C(=O)c3ccc(C)o3)=C(O)C(=O)N2CCN2CCOCC2)ccc1OCCC(C)C (centres undefined)	2.5	-2.2	-3	13	/	/	/
COCCn1c(=O)[nH]c2cc(C(=O)NCc3ccccc3)ccc2c1=O	4.6	-2.9	0	-2	-26	-4%	0.5
Cn1c(NC(=O)c2cc(Cl)ccc2Cl)cc(=O)n(C)c1=O	-4.5	3.5	5	-6	-3	-10%	0.3
C[C@@H]1CN(S(=O)(=O)C(C)(C)C)[C@@H](CCO)/C1=C\c1ccccc1	-2.5	/	-7	/	/	-6%	/
COc1ccc(COCC(O)CN2CCN(S(=O)(=O)c3ccc(C(C)C)cc3)CC2)cc1 (centres undefined)	0.7	/	-1	/	-54	/	-7.4
Cc1nc2sccn2c1-c1csc(NCc2ccccc2)n1	0.6	2.3	5	13	-6	-13%	1.2
Cc1cc(OCC(=O)c2cccc(C(F)(F)F)c2)n2cnnc2n1	0.7	-2.0	-5	2	-3	/	2.3
O=C(O)CCCCCNC(=O)c1ccccc1Br	0.6	-1.5	5	-13	-4	-7%	5.2
O=C(c1cc2ccccc2o1)N1CCN(c2cccc(Cl)c2)CC1	1.0	-0.7	1	0	-6	-1%	0.3
COc1ccc(CCNC(=O)c2cc(S(=O)(=O)N3CCCCC3)c[nH]2)cc1OC	-2.7	0.4	1	0	14	/	5.1
COc1ccc(S(=O)(=O)NC(C)C(=O)Nc2ccccc2F)cc1 (centres undefined)	3.8	0.6	0	13	-10	10%	2.5
COC(=O)c1cc(C(=O)c2cc(Br)ccc2O)coc1=N	4.7	?	11	-6	27	/	1.9
CCCCNC(=S)NCCN1CCCCC1	-0.9	9.7	8	?	-10	3%	1.6
CCC(C)NC(=O)CNC(=O)c1nn(-c2ccc(OC)c(Cl)c2)c(=O)c2ccccc12 (centres undefined)	-4.0	-4.0	1	21	-14	/	1.8
Cc1cc(NC(=O)COC(=O)c2cc(S(=O)(=O)N(C)c3ccccc3)ccc2Cl)no1	1.8	-1.1	4	23	/	/	0.3
Cc1ccc(-n2c(C)cc(/C=N/NC(=O)CC3(C)OCCO3)c2C)c(C)c1	2.9	1.2	2	1	6	/	-12
CCC(CC)NC(=O)c1n[nH]c(=O)c2ccccc12	-2.1	-1.7	-5	-8	-5	0%	-0.8
CCN(C(=O)CSc1nnc(C)n1-c1ccccc1)C1CCS(=O)(=O)C1 (centres undefined)	3.8	3.5	-8	6	/	12%	0.6
Cc1noc(NS(=O)(=O)c2ccc(NC(=O)c3cnc4scc(C)n4c3=O)cc2)c1C	2.3	0.3	2	4	45	?	5.0
COc1ccc(-c2sc(Nc3ccccc3)n[n+]2-c2ccc(F)cc2)c(OC)c1OC	2.0	7.6	-7	39	6	/	5.2
COc1cccc(N2CCN(C(=O)CN(C)S(=O)(=O)c3ccc4c(c3)CCC(=O)N4)CC2)c1	1.5	/	0	/	48	7%	-4.5
O=C(OCC(=O)N1CCOCC1)c1ccccc1Cc1ccccc1	1.3	0.9	-9	-4	-4	13%	5.8

Records listed above shown as hits in RanGTP-Impb inh:
structure	RanGTP-Impb inh	Beta2AR agonist	ALR H2O2 inh	Vif A3G	LANA-H2B inh
COc1ccc(NC(=O)/C(C#N)=C\c2ccc(N3CCOCC3)o2)cc1	18*	-6	80*	/	-47

(cont.)
SMILES	HNF4A DNA FP	RanGTP-Impb inh	Beta2AR agonist	Calb FLC	ALR H2O2 inh	Vif A3G	LANA-H2B inh
CCN(CC)c1ccc(NC(=O)C(C)C)cc1	0.8	2.7	-11	-2	0	20%	0.8
Cc1csc(NC(=O)c2c(O)c3c(n(CC(C)C)c2=O)CCCC3)n1	-8.1	4.6	-13	-4	19	-1%	-2.9
CC(=O)c1cccc(NC(=O)CN(C)S(=O)(=O)c2cccc3nsnc23)c1	0.2	3.4	7	0	-3	/	-3.9
O=C(COc1ccc([N+](=O)[O-])cc1Cl)Nn1cnnc1	-0.5	-3.8	0	-4	-4	/	-3.4
C/[N+]([O-])=C\c1cccc(OCCN2CCN(c3ncc(C(F)(F)F)cc3Cl)CC2)c1	3.1	-1.4	-13	2	9	1%	0.1
CCCCS(=O)(=O)c1sc2nc3c(cc2c1N)CCCC3	-1.3	1.1	-3	-25	-1	27%	-1.8
COc1ccccc1/C=N/NC(=O)CO	2.8	0.7	5	-3	-14	-8%	3.7
CC(=O)N1c2ccc(S(=O)(=O)NC(CC(=O)O)c3ccc(Br)cc3)cc2CC1C (centres undefined)	3.2	0.3	9	0	-7	7%	4.6
CC1C(=O)Nc2ccc(S(=O)(=O)NCc3ccc(Cl)cc3)cc2NC1=O (centres undefined)	4.2	-2.6	4	-1	8	/	-14
CCOC(=O)C1CCN(C(c2cccc(OC)c2)c2sc3nc(C)nn3c2O)CC1 (centres undefined)	-1.1	-1.7	-2	14	-4	-5%	5.7
CCN(CC(=O)Nc1ccc(NC(C)=O)cc1)C(=O)CN1C(=O)NC2(CCCC2)C1=O	0.6	2.5	-8	-1	-4	4%	-8.6
O=C(CNc1cccc([N+](=O)[O-])c1)N/N=C/c1ccc(F)cc1	0.9	-9.9	-1	1	/	18%	0.6
Cc1cc(C)c(Nc2ncccc2C(=O)O)c(C)c1	-3.2	1.5	10	16	1	8%	5.0
Cc1cc(C)c(C(=O)C(C)OC(=O)C2=COCCO2)cc1C (centres undefined)	-0.7	-2.3	1	11	-1	-1%	3.2
CC[C@@]1(C(=O)OC)N[C@H](CN(C)C(=O)COc2ccccc2)[C@@H]2C(=O)N(Cc3ccccc3)C(=O)[C@@H]21	-0.5	/	2	/	/	1%	/
CC(=O)COc1cc2c(-c3cc4ccccc4o3)cc(=O)oc2cc1C	-1.4	-1.7	-5	46	-1	-3%	-4.9
Cc1cccc(C)c1NC(=O)CCCCCNS(=O)(=O)c1ccccc1	1.4	-0.4	-6	-1	-4	-9%	1.7

Assay outcomes: PubChem, several laboratories
